# Bioassay records (PubChem BioAssay)
# RecA intein inh: Mtb RecA intein splicing inhibition; cell-free RecA intein splicing, fluorescence; P9WHJ3; 290,000 tested, 0.75% active; inhibition, %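 (about 9 µM by stock and volumes)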; in the data active = inhibition above about 30%; inconclusive = no clear call, values can overlap the other calls;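 note: 0% = vehicle wells and 100% = reference inhibitor control wells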
# Target sequence (P9WHJ3 whole entry, looked up): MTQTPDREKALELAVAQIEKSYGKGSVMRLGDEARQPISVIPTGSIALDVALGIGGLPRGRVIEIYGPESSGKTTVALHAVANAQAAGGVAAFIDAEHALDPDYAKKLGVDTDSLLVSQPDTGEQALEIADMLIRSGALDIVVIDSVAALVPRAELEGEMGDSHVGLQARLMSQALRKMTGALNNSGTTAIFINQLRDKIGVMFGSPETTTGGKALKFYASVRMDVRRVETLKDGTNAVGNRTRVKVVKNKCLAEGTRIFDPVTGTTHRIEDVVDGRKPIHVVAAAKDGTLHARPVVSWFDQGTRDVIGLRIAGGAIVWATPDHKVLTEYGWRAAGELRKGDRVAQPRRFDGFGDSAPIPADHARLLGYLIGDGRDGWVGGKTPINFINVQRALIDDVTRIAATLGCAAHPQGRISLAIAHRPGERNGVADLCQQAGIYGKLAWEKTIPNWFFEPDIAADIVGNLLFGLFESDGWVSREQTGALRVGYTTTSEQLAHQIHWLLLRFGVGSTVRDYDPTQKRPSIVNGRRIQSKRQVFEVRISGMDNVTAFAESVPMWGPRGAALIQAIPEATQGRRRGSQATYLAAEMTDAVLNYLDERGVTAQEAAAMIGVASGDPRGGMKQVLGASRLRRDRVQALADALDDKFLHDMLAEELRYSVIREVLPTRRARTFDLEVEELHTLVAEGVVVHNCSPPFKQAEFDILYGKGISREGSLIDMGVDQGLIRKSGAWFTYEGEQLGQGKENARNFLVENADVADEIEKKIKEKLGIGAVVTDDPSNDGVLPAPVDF
# Mtb bLac sens: beta-lactam sensitization of Mtb H37Rv. M. tuberculosis H37Rv growth with meropenem, percent inhibition; hits of this screen are not shown here. inhibition, % at 25 µM. 330,000 tested, 0.27% active. AID 434955;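 active = about 74% or more and at least 40 points above the plate without the antibiotic, then above 30% in a dose series; inconclusive = first-round hits that could not be retested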;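 note: growth measured after seven days incubation then overnight dye step; 0% = bacteria only wells and 100% = bacteria with antibiotic; twin plates without the antibiotic show which effects depend on it; some results filed as inactive read as strong as hits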
# YopH PTP inh: YopH (Yersinia) phosphatase inhibition | fluorescence Ex485/Em525 | inhibition, %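 (about 10 µM by stock and volumes)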 | 140,000 tested, 0.16% active;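 active = inhibition of 50% or more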;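 note: controls were vehicle for no effect and minimum signal wells for full effect; inactives centre near -20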
# Arbovirus inh: antivirals against arbovirus infection; arbovirus infection cell-based antiviral screen; inhibition, % at 10 µM; 200,000 tested, 0.37% active; AID 1251;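 active = inhibition from about 30%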;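 note: bluetongue infection of BSR cells; cell survival read as ATP light after 72 h; 0% = infected wells without compound and 100% = uninfected wells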
# Mtb growth: M. tuberculosis H37Rv growth inhibitors, H37Rv strain (AID 1626); 220,000 tested, 0.95% active; inhibition, % at 10 µM, or IC50 in µM where a hit was titrated; M. tuberculosis H37Rv growth inhibition; higher % means a stronger effect;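 active = confirmed in a dose series; inconclusive = inhibition above 80% but not taken into the dose series; inactive = below 80% or under 30% at every dose of the series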;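 note: bacteria incubated seven days before Alamar blue readout; 0% = bacteria only wells and 100% = bacteria with antibiotic wells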
# Arbovirus inh repeat: further read-out of Arbovirus inh, marked with its call; inhibition, %; measured here: 10K subset replicate screen; many hits read low in the repeat;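 first of two repeat runs on a subset; 0% = infected and 100% = uninfected wells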
# * hit, by the source's call; ? = inconclusive; · = no result given; & = joins results of further samples.
SMILES,RecA intein inh,Mtb bLac sens,YopH PTP inh,Arbovirus inh,Mtb growth,others
CCCCN1C(=O)C2(NNc3ccccc3O2)c2ccccc21 (stereo not drawn),2.7,100,-21,-29,6%,
O=C(CSc1n[nH]c(=O)[nH]c1=O)N/N=C/C=C\c1ccccc1,-0.5,2,·,0,8%,
CSCCC(NC(=O)c1cc(CC(C)C)oc1C)C(=O)O (stereo not drawn),0.2,-5,-21,11,·,
Cc1ccc(OCC(O)CN2CCN(Cc3ccc4c(c3)OCO4)CC2)c(C)c1 (stereo not drawn),-0.3,9,-39,-8,-2%,
O=C(NCCCn1ncc2ccccc21)c1cc(COc2c(F)cccc2F)on1,1.0,4,·,-8,8%,
Oc1ccc(-c2nc3cnccn3c2Nc2ccc3c(c2)OCCO3)cc1,-4.4,2,-15,-14,·,Arbovirus inh repeat=-8
CSCCC(NC(=O)c1ccccc1Cl)C(=O)N(C)CC(=O)Nc1ccc(N2CCOCC2)cc1 (stereo not drawn),-0.3,-3,·,·,·,
C=CCn1c(SCC(=O)N2CCN(c3ccccc3)CC2)nnc1-c1ccco1,2.6,6,10,3,3%,
Cc1cccc(C)c1OCc1cc(C(=O)N2CCC(c3ccccc3)CC2)no1,8.2,98,·,·,·,
COc1ccc(OC)c(CN2CCN(C(=O)c3cccs3)CC2)c1,0.8,-5,-30,5,3%,
CCc1nnc(NC(=S)Nc2ccccc2)s1,·,3,·,8,?,
CCC(=O)c1c(O)n(C2CCCCCC2)c(=O)[nH]c1=O,1.5,64,-50,13,-6%,
C=CCNC(=O)C1CC1(c1cccc(C)c1)c1cccc(C)c1 (stereo not drawn),0.1,-1,·,·,·,
O=C(NCc1ccc(Cl)cc1)C1CCCO1 (stereo not drawn),-2.3,6,·,0,-2%,
CCCCCCSc1ccc(-c2nc3ccccn3c2NCCCC)cc1,-11,100,·,·,·,
CCc1c(O)nc(SCC(=O)c2ccccc2)n(-c2ccccc2)c1=O,1.5,-2,·,·,-5%,
Nc1c(C(=O)N2CCOCC2)sc(=S)n1-c1ccccc1,-2.5,-14,-7,1,-8%,
Cc1cc(NC(=O)/C=C/C(=O)N(CC(=O)NC2CCCC2)c2ccc(F)cc2)no1,1.7,-1,·,3,-15%,
Cc1cc(C)c(C)c(OCC(=O)O/N=C(\N)c2ccncc2)c1,6.5,41,·,·,·,
COc1ccc(N2CCN(c3nc4ccccn4c(=O)c3/C=C(\C#N)S(=O)(=O)c3ccccc3)CC2)cc1,-1.0,8,·,·,·,
COCCN(C(=O)COC(=O)CCC(=O)c1ccc(C)cc1)c1c(N)n(Cc2ccccc2)c(=O)[nH]c1=O,-7.2,0,·,·,·,
O=C(Nc1ccc(S(=O)(=O)Nc2ncccn2)cc1)c1cnc(Cl)c(Cl)c1,3.2,-7,·,4,4%,
CC1=NN(c2ccccc2)C(=O)/C1=C\c1c(C)[nH]n(-c2ccccc2)c1=O,18,94,-24,4,4%,
COc1ccccc1C(=O)COC(=O)CCCN=C1NS(=O)(=O)c2ccccc21,-1.4,-3,·,·,·,
CC(CC(=O)N(C)CC(=O)Nc1ccc(N2CCOCC2)cc1)c1ccccc1 (stereo not drawn),0.1,-7,·,·,·,
CNc1nc(Oc2ccc(C(=O)OC)cc2)nc(SC)n1,-1.0,0,-7,0,0%,
CCC1=NNC(=O)C(CC(=O)Nc2ccccc2)c2cc(OC)c(OC)cc21 (stereo not drawn),-1.3,-2,-27,3,-5%,
OCCSc1nncn1/N=C/c1c[nH]c2ccccc12,3.1,2,-32,12,-4%,
O=C(CCNS(=O)(=O)c1ccccc1)N1CCN(c2ccccc2)CC1,1.1,?,·,·,·,
COc1cc(NC(=O)C2CCCCC2)c2ncccc2c1,-4.0,86,-6,2,13%,
Cc1cc(C)c(C(=O)Nc2ccccc2)c(CC(C)(C)C(=O)O)c1,-1.1,-6,·,·,3%,
C[C@H]1Oc2ccccc2C(=O)C1C(=O)c1ccccc1 (stereo partly drawn),1.4,5,·,·,·,
CCN(CC(=O)N1CCCC1)S(=O)(=O)c1ccc2ccccc2c1,-1.7,4,·,·,·,
Cc1[nH]nc2c1C(CCc1ccccc1)C(C#N)=C(N)O2 (stereo not drawn),70*,?,·,-4,-2%,
O=C(NCc1cccnc1)C1CC(=O)N(c2ccc(Cl)cc2)C1 (stereo not drawn),0.3,2,-13,3,-6%,
Cc1cccc(-n2c(SCC(N)=O)nc3c(c2=O)C2(CCCCC2)Cc2ccccc2-3)c1,-0.1,-2,-8,-37,0%,

# At a glance, part of the list above:
SMILES,RecA intein inh,Mtb bLac sens,YopH PTP inh,Arbovirus inh,Mtb growth,others
O=C(CSc1n[nH]c(=O)[nH]c1=O)N/N=C/C=C\c1ccccc1,-0.5,2,·,0,8%,
CSCCC(NC(=O)c1cc(CC(C)C)oc1C)C(=O)O (stereo not drawn),0.2,-5,-21,11,·,
Cc1ccc(OCC(O)CN2CCN(Cc3ccc4c(c3)OCO4)CC2)c(C)c1 (stereo not drawn),-0.3,9,-39,-8,-2%,
O=C(NCCCn1ncc2ccccc21)c1cc(COc2c(F)cccc2F)on1,1.0,4,·,-8,8%,
Oc1ccc(-c2nc3cnccn3c2Nc2ccc3c(c2)OCCO3)cc1,-4.4,2,-15,-14,·,Arbovirus inh repeat=-8
CSCCC(NC(=O)c1ccccc1Cl)C(=O)N(C)CC(=O)Nc1ccc(N2CCOCC2)cc1 (stereo not drawn),-0.3,-3,·,·,·,
C=CCn1c(SCC(=O)N2CCN(c3ccccc3)CC2)nnc1-c1ccco1,2.6,6,10,3,3%,
Cc1cccc(C)c1OCc1cc(C(=O)N2CCC(c3ccccc3)CC2)no1,8.2,98,·,·,·,
COc1ccc(OC)c(CN2CCN(C(=O)c3cccs3)CC2)c1,0.8,-5,-30,5,3%,
CCc1nnc(NC(=S)Nc2ccccc2)s1,·,3,·,8,?,
CCC(=O)c1c(O)n(C2CCCCCC2)c(=O)[nH]c1=O,1.5,64,-50,13,-6%,
C=CCNC(=O)C1CC1(c1cccc(C)c1)c1cccc(C)c1 (stereo not drawn),0.1,-1,·,·,·,
O=C(NCc1ccc(Cl)cc1)C1CCCO1 (stereo not drawn),-2.3,6,·,0,-2%,
CCCCCCSc1ccc(-c2nc3ccccn3c2NCCCC)cc1,-11,100,·,·,·,
CCc1c(O)nc(SCC(=O)c2ccccc2)n(-c2ccccc2)c1=O,1.5,-2,·,·,-5%,
Nc1c(C(=O)N2CCOCC2)sc(=S)n1-c1ccccc1,-2.5,-14,-7,1,-8%,
Cc1cc(NC(=O)/C=C/C(=O)N(CC(=O)NC2CCCC2)c2ccc(F)cc2)no1,1.7,-1,·,3,-15%,
Cc1cc(C)c(C)c(OCC(=O)O/N=C(\N)c2ccncc2)c1,6.5,41,·,·,·,
COc1ccc(N2CCN(c3nc4ccccn4c(=O)c3/C=C(\C#N)S(=O)(=O)c3ccccc3)CC2)cc1,-1.0,8,·,·,·,
COCCN(C(=O)COC(=O)CCC(=O)c1ccc(C)cc1)c1c(N)n(Cc2ccccc2)c(=O)[nH]c1=O,-7.2,0,·,·,·,
O=C(Nc1ccc(S(=O)(=O)Nc2ncccn2)cc1)c1cnc(Cl)c(Cl)c1,3.2,-7,·,4,4%,
CC1=NN(c2ccccc2)C(=O)/C1=C\c1c(C)[nH]n(-c2ccccc2)c1=O,18,94,-24,4,4%,

# New compounds follow:
SMILES,RecA intein inh,Mtb bLac sens,YopH PTP inh,Arbovirus inh,Mtb growth,others
Nc1nnc(SCCCC(=O)c2ccc(Br)cc2)s1,7.5,8,-32,6,0%,
Cc1ccc(CN(C)C(=O)c2c(C)nn(-c3ccccc3)c2C)cc1,-0.7,-8,·,·,·,
CC(=O)Cc1nsc(NC(=O)c2ccc(COc3ccccc3)o2)n1,-0.6,1,-10,7,-11%,
CCC1=NC(c2ccc(Br)cc2)N(O)C1(C)C (stereo not drawn),-4.7,-4,·,1,4%,
CN(C)S(=O)(=O)c1ccc(C(=O)NCCC(=O)N2CCCC2)cc1,-1.0,1,·,·,·,
CCCCc1c(C)nc2nc(SCc3ccc(Cl)cc3)[nH]n2c1=O,2.1,7,·,·,·,
CCOC(=O)c1ccc2c(c1)N(C)C(=O)c1ccccc1S2,-0.9,4,·,·,·,
Cc1c(Cl)cccc1NC(=O)Nc1ccccc1C(N)=O,5.5,3,·,7,3%,
CCCCCCCC(=O)NNC(=O)c1c(O)c2ccccc2[nH]c1=O,0.7,-4,·,·,-15%,
O=C(Nc1ccc(S(=O)(=O)Nc2ccccc2)cc1)C1COc2ccccc2O1 (stereo not drawn),16,4,-11,-7,11%,
CCN1C(=O)C(F)(CC)C(=O)c2ccccc21 (stereo not drawn),-0.6,3,-11,-3,10%,
Cc1nc2c3ccccc3nc(NNC(=O)CCC(=O)N3CCN(c4ccc(F)cc4)CC3)n2n1,-2.7,-4,·,·,·,
CC(C)CN(C(=O)CCc1ccccc1Cl)c1c(N)n(Cc2ccccc2)c(=O)[nH]c1=O,-2.2,-10,·,·,·,
COc1ccccc1Oc1nc2ccccn2c(=O)c1/C=C(\C#N)C(=O)Nc1c(C)n(C)n(-c2ccccc2)c1=O,0.0,-1,·,·,-6%,
Cc1nc2c3cc(F)ccc3n(Cc3ccc(F)cc3)c2s1,2.4,12,-16,-14,0%,
Cc1cc(C(=O)OCC(=O)NCc2ccccc2Cl)c(C)o1,1.0,5,·,0,11%,
Cn1c(NCc2ccco2)nc2c1c(=O)n(Cc1ccc(Cl)cc1Cl)c(=O)n2C,0.8,-1,-10,-6,-3%,
Cc1cc2ccccc2n1CCNC(=O)C(C)C,-4.8,-2,-16,5,12%,Arbovirus inh repeat=2
CCOC(=O)/C(=C/c1ccc(N2CCC(c3ccccc3)=N2)cc1)C(C)=O,-9.7,·,-2,-2,7%,
Cc1cc(C(=O)NCCC2=CCCCC2)c(C)o1,19,-2,-33,6,-1%,
CN1CCN(CC(=O)N2c3ccccc3Sc3ccccc32)CC1,-0.3,-4,·,·,·,
CCOC(=O)c1cc(C(=O)OCC)c2cccc(C)n2c1=O,-91,-2,-4,3,4%,
Cn1c(=O)c(=O)n(C)c2cc(S(=O)(=O)NCCc3ccccc3)ccc21,1.5,-2,-31,2,-2%,
CCn1cc(C(=O)O)c(=O)c2cnc(N3CCN(C(=S)NC(=O)c4ccc(OC)cc4)CC3)nc21,-6.2,5,·,·,·,

# No new results follow: 2 of the compounds above.
SMILES,RecA intein inh,Mtb bLac sens,YopH PTP inh,Arbovirus inh,Mtb growth,others
Cc1cc2ccccc2n1CCNC(=O)C(C)C,-4.8,-2,-16,5,12%,Arbovirus inh repeat=2
CCOC(=O)/C(=C/c1ccc(N2CCC(c3ccccc3)=N2)cc1)C(C)=O,-9.7,·,-2,-2,7%,

# Continued:
SMILES,RecA intein inh,Mtb bLac sens,YopH PTP inh,Arbovirus inh,Mtb growth,others
O=C(NCc1ccc(Cl)cc1)C(=O)NCC1OCCCN1S(=O)(=O)c1cccs1 (stereo not drawn),3.3,-3,·,·,·,
CCOc1ccc2nc(Nc3nc(CSc4nnnn4-c4ccccc4)cc(=O)[nH]3)nc(C)c2c1,-0.2,5,-35,-42,1%,
COc1ccc(-c2c3c(=O)n(C)c(=O)n(C)c3cn2C2CCCCC2)cc1,2.3,-1,-11,-26,4%,
Cc1ccc(NC(=S)N(CCN(C)C)Cc2cccs2)cc1,2.2,2,·,12,5%,
CCN(c1ccc(NC(=O)c2cccc(S(=O)(=O)N3CCN(C)CC3)c2)cc1)C(C)C,3.1,16,·,·,·,
COc1ccc(CCNC(=S)N2CCN(S(=O)(=O)c3ccc(Cl)cc3)CC2)cc1,-0.9,-9,·,·,·,
C#CC(C)(C)NC(=O)c1ccccc1OC,-1.5,12,-14,8,-2%,
COc1ccc(S(=O)(=O)N(C)CC(=O)NC2CCCC2)cc1Cl,0.2,-8,-27,4,5%,
CN(C)c1ccc(N=C/C=C2/N(C)c3ccccc3C2(C)C)cc1,9.8,·,4,-24,58%,
O=C(COc1ccc(Br)cc1)N1CCN(Cc2ccc3c(c2)OCO3)CC1,3.8,7,·,·,·,
O=C(Cc1cccc2ccccc12)N/N=C/c1ccncc1,-1.0,8,·,-8,-1%,
COc1ccccc1C1OC(c2cccc([N+](=O)[O-])c2)=NN1C(C)=O (stereo not drawn),1.6,4,·,6,-3%,
Cc1ccc(OCC(=O)Nc2cc(-c3nn4c(C)nnc4s3)ccc2C)cc1,-0.2,2,·,-8,·,Arbovirus inh repeat=-4
CC(NC(=O)NC1CCCCC1)C(c1cccs1)N1CCN(Cc2ccccc2)CC1 (stereo not drawn),-2.2,2,-20,-7,-7%,
COc1cc(CN2CCC(CO)(CCOc3ccccc3)CC2)cc(OC)c1OC,-0.8,-1,·,-3,-10%,
CC1CCCC(C)N1C(=O)COC(=O)C1CCN(S(=O)(=O)c2ccc3c(c2)OCCO3)CC1 (stereo not drawn),0.0,-3,·,·,·,
OC(COc1cccc(OCC(O)CN2CCOCC2)c1)CN1CCOCC1 (stereo not drawn),-5.5&-0.4,-2&-5,2&-37,-2&-1,1%,

# These rows are one share of the data (hit frequency here may not be typical).
